HSD17B inhib = inhibitors of human HSD17B10 dehydrogenase | recombinant HSD17B10, NADH fluorescence kinetic; many of its hits are not listed in these tables | Potency, µM (series often up to 57.1 µM), inactives show top-dose activity change, negative = inhibition, most hits filed as inhibitors | 75,000 tested, 7.6% active; active means well fitted inhibition curve with a large enough effect; inconclusive means small, poorly fitted or top-dose-only effect; inactive means no such curve, though single readings can be large or run the other way;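 further: the protocol describes HADH2 (HSD17B10) and not the HSD17B4 of the title; nearly all actives have a fitted effect of over 70% in size; most hits overshoot -100% by far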
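Enzyme plus compound, 15 min room temperature; substrate mix added (NAD+ 1 mM, beta-hydroxybutyryl-CoA 90 uM final); plates read kinetically for NADH fluorescence. HADH2 was His-tagged, E. coli-derived, 20 nM.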
* marks the source's active call; other numbers are inactive results; i = inactive; ? = inconclusive; [ ] = another dose, or the depositor's remark. On the % scale 0 is the no-effect control and ±100 the full control effect; potency means the concentration at half of the fitted maximal effect.

SMILES	HSD17B inhib
O=C(Cn1nc(Cc2cccnc2)c2ccccc2c1=O)NCCCN1CCCC1=O	1%
COCCn1cc(C(=O)N2CCCC(C)C2)c2c3ccccc3n(C)c2c1=O (centres undefined)	25µM*
O=c1c2ccccc2ncn1Cc1nc2ccccc2s1	7%
Cc1cc(C)c2cc(C(c3nnnn3C3CCCC3)N3CCOCC3)c(=O)[nH]c2c1 (centres undefined)	?
COc1ccc2[nH]cc(CCNc3nc(-c4ccoc4)nc4ccccc34)c2c1	-5%
O=C(NCCO)c1c(O)c2cccc3c2n(c1=O)CC3	-26%
COC(=O)c1ccc(C23CC4(C2)[C@H](CN(CC2CCCCC2)[C@@H]4c2ccccc2)C3c2ccc(Cl)nc2)cc1 (some centres undefined)	0%
c1cnc(N2CCN(c3nc4ccccc4n4cnnc34)CC2)nc1	4%
COc1cccc(NC(=O)N(Cc2ccco2)C(C)c2cccs2)c1 (centres undefined)	0%
CS(=O)(=O)N(CC(=O)NCc1ccco1)Cc1ccc(Cl)cc1	-7%
O=C(CCn1[nH]c(=O)c2ccccc2c1=O)OC1CCCCC1	13%
CCNc1nc(N)nc(Oc2ccc(C(=O)OC)cc2)n1	5%
CCc1nnc(NC(=O)CCC(=O)N2CCN(Cc3ccccc3)CC2)s1	13%
COC(=O)[C@@]1(Cc2ccc(OC)cc2)[C@H]2c3cc(C(=O)N4CCCC4)n(C[C@H](O)CO)c3C[C@H]2CN1C(=O)c1ccccc1	6%
O=C(O)C/C(=C\c1ccccc1)C(=O)O	12%[11.4 µM]
Cc1nn(-c2cc(N3CCCCC3)ccc2N)c(=O)c2ccccc12	11%
COc1ccccc1Oc1c(C)oc2cc(OC(=O)c3ccco3)ccc2c1=O	i
CCCCC(c1nnnn1CC1CCCO1)N1CCN(c2nc3ccccc3s2)CC1 (centres undefined)	-5%
O=C(O)C1CCCCC1C(=O)N1CC=C(c2ccccc2)CC1 (centres undefined)	-22%
CN1CCN(CCCn2cnc3c(=O)oc4ccccc4c32)CC1	-8%
CCOC(=O)C1=C(C)NC(C)=C(C(=O)OCC)C1C(=O)OCC(=O)N1CCCCC1CC (centres undefined)	-15%
CNCCCc1[nH]nc(N)c1C#N	-2%
O=C(O)C1C2C=CC3(CN(Cc4ccco4)C(=O)C13)O2 (centres undefined)	-2%
COc1cccc(N2C(=O)C3C(C2=O)C2C=CC3C23CC3)c1 (centres undefined)	1%
COC(=O)CN1C(=O)C(O)(CC(=O)c2ccc(Br)cc2)c2ccccc21 (centres undefined)	9%

A draw from above in order of length of the SMILES, descending.
SMILES	HSD17B inhib
CCCCC(c1nnnn1CC1CCCO1)N1CCN(c2nc3ccccc3s2)CC1 (centres undefined)	-5%
COc1cccc(N2C(=O)C3C(C2=O)C2C=CC3C23CC3)c1 (centres undefined)	1%
O=C(NCCO)c1c(O)c2cccc3c2n(c1=O)CC3	-26%

Grouped by structure: those above containing a halogen.
SMILES	HSD17B inhib
COC(=O)c1ccc(C23CC4(C2)[C@H](CN(CC2CCCCC2)[C@@H]4c2ccccc2)C3c2ccc(Cl)nc2)cc1 (some centres undefined)	0%
CS(=O)(=O)N(CC(=O)NCc1ccco1)Cc1ccc(Cl)cc1	-7%
COC(=O)CN1C(=O)C(O)(CC(=O)c2ccc(Br)cc2)c2ccccc21 (centres undefined)	9%

(listing goes on)
SMILES	HSD17B inhib
Cn1cnc(S(=O)(=O)NCc2cccs2)c1	-2%
Cc1nc(CSc2nnc(C)s2)cs1	9%
CC(=O)N1c2ccccc2C(=O)C1N1CCCCC1 (centres undefined)	25µM*
O=C1C/C(=C/NCc2ccccc2)C(=O)N1	-1%
C=CC[C@H](N)C(=O)O	-3%
Cc1cccc2sc(NC(=O)CN(C)S(=O)(=O)c3ccc(Br)s3)nc12	12%
C=CCn1c(SCc2nc3ccccc3[nH]2)nnc1-c1ccccn1	5%
CC(=O)OC[C@H]1O[C@@H](ON=C(C)C)[C@H](OC(C)=O)[C@@H](OC(C)=O)[C@H]1OC(C)=O	-5%[11.4 µM]
COc1ccc(N2CCN(S(=O)(=O)c3cccc4cccnc34)CC2)cc1	5%
CCOc1ccc(-c2nnc(NC(=O)CCCOc3cccc(C)c3)o2)cc1	-11%
CC1=C(C)C(=O)N(c2ccc(C(=O)O)cc2)C1=O	1%
Cc1cc2oc(=O)cc(C)c2cc1NC(=O)CCC(=O)O	32µM*
Cc1ccc(S(=O)(=O)N2CCCC(C(=O)NCC3COCCO3)C2)cc1 (centres undefined)	1%
CCCOc1ccc(CC(=O)NCc2ccco2)cc1OC	-5%
COc1ccc(CN(C)CC(=O)c2c(N)n(Cc3ccccc3)c(=O)n(C)c2=O)c(OC)c1	-6%
O=C(NCc1ccco1)C1Cc2ccccc2CN1S(=O)(=O)c1ccccc1F (centres undefined)	16µM*
COCCN1Cc2cccc(C(=O)Nc3cccc(OC)c3)c2C1=O	11%
CCN(CCCNC(=O)CCc1nc(-c2ccc(OC)cc2)no1)c1cccc(C)c1	-7%
Cc1cc(C(=O)CNCc2ccco2)c(C)n1-c1ccc(F)cc1	1%
COCc1nc2ccccc2n1Cc1ccc(Br)cc1	5%
CC(C)NC(=O)c1ccc(-c2ccccc2C(F)(F)F)o1	2%
CCOC(=O)C1=C(C)NC(=O)NC1c1ccc(OCC(=O)OC)c(OC)c1 (centres undefined)	-2%
C=CCN(C(=O)CCC(=O)Nc1cc(C)on1)C(C(=O)NC(C)(C)C)c1cccc(OC)c1OC (centres undefined)	4%
O=C(Cc1cccs1)NCc1ccc2c(c1)OCO2	0%
Cn1ncc2c(Nc3ccc4ccccc4c3)ncnc21	-11%
SMILES	HSD17B inhib
Cc1cccc(NC(=O)c2cc(-c3ccco3)nc3ccccc23)n1	25µM*
O=C(O)C1CCCCC1C(=O)Nc1ccccc1Nc1ccccc1 (centres undefined)	1%
CC[N+](CC)(CCO)CCCN1C(=O)C2CC=C(Cl)CC2C1=O (centres undefined)	6%
COc1ccc(N(CC(=O)Nc2cccc(OC)c2)S(=O)(=O)c2c(C)nn(C)c2C)cc1	0%
O=C1CCCN1c1ccc(S(=O)(=O)N2CCN(c3ccccn3)CC2)cc1	-19%
COC(=O)CCC(NC(=O)OCc1ccccc1)C(=O)NC(CC(C)C)C(=O)OC (centres undefined)	8%
O=C(Nc1cccc(Cl)c1)N(CCN1CCOCC1)Cc1cccc(Cl)c1	-6%
O=C(CCSc1nc2ccccc2o1)N1CCOCC1	-1%
COCCOC(=O)C1=C(C)NC2=C(C(=O)CC(C)(C)C2)C1c1ccc(N(C)C)cc1 (centres undefined)	1%
Cc1ccccc1CN1CCN(S(=O)(=O)c2ccc(F)cc2)CC1	-9%
Nc1nonc1-c1nc2ccccc2n1CC(=O)N1CCCCC1	3%
CC(=O)Nc1cccc(NC(=O)C2CCCN2C(=O)Nc2ccc(Cl)cc2)c1 (centres undefined)	6%
Cc1ccc(S(=O)(=O)Nc2cc(C(=O)NCCN(C)C)ccc2N2CCCCC2)cc1	-3%
Cc1ccc(-c2noc(CCC(=O)Nc3ccc(C)cn3)n2)cc1	0%
CCCN(CCC)CCNC(=O)C1CCN(Cc2nc(-c3ccc(Cl)cc3)oc2C)CC1	0%
CCC(=O)Nc1cccc(C(=O)c2ccccc2)c1	-2%
O=C1CC(C(F)(F)C(F)(F)C(F)(F)C(F)F)=Nc2ccccc2N1	10%
CCCCNC(=O)c1cn(C)c2ccc(S(=O)(=O)N3CCOCC3)cc2c1=O	11%
CCc1ccc(S(=O)(=O)NCc2cn3ccsc3n2)s1	10%
COc1ccc(CCNC(=O)C(C)OC(=O)c2ccco2)cc1OC (centres undefined)	-6%
COCC(=O)NC(C)c1nc2ccccc2[nH]1 (centres undefined)	-4%
CN1CCN(C(=O)c2cc3nc(-c4ccccc4)cc(C(F)(F)F)n3n2)CC1	-9%
CCCCNC(=O)c1cc(-c2ccc(F)cc2)on1	6%
CCC(C)NC(=O)c1cnc2n(c1=O)CCS2 (centres undefined)	3%
Cc1cc(C(=O)Nc2ccc(S(=O)(=O)N3CCCC3)cc2)cs1	0%

Nothing new here: entries from further up.
SMILES	HSD17B inhib
Cc1cccc(NC(=O)c2cc(-c3ccco3)nc3ccccc23)n1	25µM*
O=C(O)C1CCCCC1C(=O)Nc1ccccc1Nc1ccccc1 (centres undefined)	1%
CC[N+](CC)(CCO)CCCN1C(=O)C2CC=C(Cl)CC2C1=O (centres undefined)	6%
COc1ccc(N(CC(=O)Nc2cccc(OC)c2)S(=O)(=O)c2c(C)nn(C)c2C)cc1	0%
O=C1CCCN1c1ccc(S(=O)(=O)N2CCN(c3ccccn3)CC2)cc1	-19%

Next part:
SMILES	HSD17B inhib
COc1cc(OC)cc(C(=O)N2CCCc3ccccc32)c1	5%
Cc1nc2cnc(Oc3cccc(Cl)c3)nc2n(CCc2ccccc2)c1=O	17%
Clc1c(-c2nnc3n2CCCCC3)sc2ccccc12	0%
Cc1ccc(S(N)(=O)=O)cc1	-1%
Cc1noc(C)c1C(=O)OCC(=O)/C=C1\N(C)c2ccccc2C1(C)C	?
CC(=O)c1ccc(NC(=O)CCc2c(C)nc3ncnn3c2C)cc1	5%
CCOc1ccc(NS(=O)(=O)c2ccc3[nH]c(=O)oc3c2)cc1	10%
COC(=O)[C@@H]1CC[C@H](C)[C@@H](c2ccc(C)cc2)N1C(=O)c1ccc(/C=N\O[C@@H](C)CN2CCCCc3nc(C)c(C)cc32)cc1	16%[11.4 µM]
O=C(OC(C(=O)NCc1ccc2c(c1)OCO2)c1ccccc1F)c1ccco1 (centres undefined)	-6%
Clc1cccc(Nc2nnc(-c3ccccc3)c3ccccc23)c1	32µM*
CCOc1cc(N2CCOCC2)c(OCC)cc1NC1=NCCCCC1	-14%
Cc1c(C(=O)OCc2ccccc2)nnn1-c1nonc1N	12%
O=c1[nH]c(=O)n(C2CCCCCC2)c(O)c1C=NCc1ccc(F)cc1	-7%
CCO/C=N/c1c(C#N)c(CC#N)nn1-c1ccccc1	0%
COCCCn1c(SCC(=O)Nc2ccc(C(C)=O)cc2)nc2ccccc2c1=O	1%
CCSc1nnc(NC(=O)c2ccccc2)s1	6%
CO[C@H]1COC(=O)[C@H](C)COC(=O)[C@@H](Cc2ccccc2)NC(=O)C/C=C\[C@H]1C	6%[11.4 µM]
Cc1cc(C(F)(F)F)nn1CC(=O)Nc1cccnc1	2%
NC(=O)CCCCn1ccc(NC(N)=NCC(F)(F)F)n1	-10%
CC(C)OCCCNC(=O)Cn1nc(-c2ccccc2)ccc1=O	2%
Cc1ccc(CN(CC(=O)NCCc2ccccc2)C(=O)CCCC(=O)Nc2cc(C)on2)cc1	28%
CCOC(=O)CSc1nnc(CNc2ccc(Cl)cc2)n1-c1ccccc1	3%
CC(C)(C)c1ccc(SCC(N)=O)cc1	0%
CCCCN1C2CCCC1CC(NC(=O)c1ccc(OC)c(OC)c1)C2 (centres undefined)	-5%
CCc1cc2ccc(C)cc2nc1SCC(=O)N1CCN(C(=O)c2ccco2)CC1	-24%
SMILES	HSD17B inhib
CCCCN1Cc2cc(C(=O)c3cc(F)ccc3O)cnc2NC1=O	?
COc1ccc(-c2coc3cc(O)cc(O)c3c2=O)cc1	?
COc1ccccc1N1CCN(S(=O)(=O)c2ccc(Cl)s2)CC1	11%
CCOC(=O)c1sc(NC(NC(=O)c2ccco2)(C(=O)OC)C(F)(F)F)nc1C (centres undefined)	-2%
Cn1ccnc1SCc1cc(=O)[nH]c2ccccc12	-1%
O=C(CSc1ncc(-c2ccc(F)cc2)[nH]1)Nc1cccc(O)c1	-3%
O=C(Cc1cccs1)Nc1nnc(CCc2ccccc2)s1	7%
N#Cc1c(/N=C/c2ccco2)sc2c1CCC2	-6%
CC(=O)N1CCC2(CC1)C(C#N)=C(N)Oc1n[nH]c(CSc3ccc(C)cc3)c12	-5%
CCC(=O)N1CCc2cc(S(=O)(=O)CCC(=O)Nc3ccc(C)c(F)c3)ccc21	-2%
O=C(c1cc(C(F)(F)F)cc(C(F)(F)F)c1)N1CCC[C@@]2(CCN(c3ccncc3)C2)C1	-5%
O=C1CC(c2cccs2)Sc2nc3ccccc3n21 (centres undefined)	8%
c1cncc(-c2ccc3ncnc(NCCN4CCOCC4)c3c2)c1	-3%
COc1cccc(NC(=O)Cn2c(=O)n(CCCC(=O)NCc3ccco3)c(=O)c3ccccc32)c1	-5%
CCNC(=O)NC(=O)CSc1ccc(NC(C)=O)cc1	5%
O=NC1=C(c2c(O)[nH]c3ccccc23)CCCC1	-4%
CCOc1ccc(OCC)c(NC(=O)CSc2nnc(-c3cccnc3)o2)c1	21%
Cn1c(=O)[nH]c(=O)c2c1nc(NCc1ccccc1)n2CC(O)c1ccccc1 (centres undefined)	2%
Cc1ccc(S(=O)(=O)O)cc1C	-10%
O=C(CCNS(=O)(=O)c1cccc2nsnc12)Nc1ccc2c(c1)OCCO2	-10%
O=C(Nc1ccc(S(=O)(=O)Nc2ccc(Cl)cc2)cc1)C1CCCO1 (centres undefined)	-1%
Cc1ccc(N2CC(C(=O)Oc3cccc(N4C(=O)CCC4=O)c3)CC2=O)cc1 (centres undefined)	7%
Cn1c(SCc2ccccc2)nnc1-c1ccncc1	-7%
COc1ccc(-c2nc(S(=O)(=O)c3ccc(C)cc3)c(N3CCCC3)o2)cc1	5%
CCc1nc(N)c(C#N)c(-c2ccccc2OC)c1C	25µM*
COc1ccc(C2NC(=O)CS2)cc1OC (centres undefined)	13%
Cn1c(=O)cc(OCCCC(=O)Nc2ccccn2)c2ccccc21	4%
CN(C)c1ccc(-c2ccc3ncnc(NC4CC4)c3c2)cc1	25µM*
CSCCC(NS(=O)(=O)c1ccc2c(c1)oc(=O)n2C)C(=O)NC1CCCCC1 (centres undefined)	7%

Screens from PubChem.

Not all compounds are listed; count on the stated rates, not on these rows.
